Ecoli rRNA inh – reduced GFP signal of wild-type E. coli, primary screen, bacterial rRNA inhibitor project, GFP/RFP fluorescence, OD600, single point; E. coli WT GFP vs humanized-ribosome RFP mutants, 24 h; hits give low values; DMSO median 0, no signal -100; GFP signal change (wild-type ribosome), % (test concentration not listed); 350,000 tested, 1.6% active; AID 720706, 2013;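 active = significant combined selectivity score with lowered wild-type GFP, culture density cut under 30%, mutant RFP and density less affected; inactive = any of these conditions unmet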; note: one replicate is shown; some compounds called inactive have numbers as strong as hits
B2AR ag – beta2AR agonists driving receptor internalization, primary screen, cell-based, FAP fluorogen, flow cytometry. Am2.2-beta2AR cells; reference of the scale not given here. response, % (concentration not given with the values). 340,000 tested, 0.43% active. Beta-2 adrenergic receptor (Homo sapiens), P07550;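 active = response above a set limit, near 3 SD of response in nonfluorescent compounds, cut at about 42% in these data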;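 note: stock transfer was 100 nL into about 11 µL; a reference agonist was the positive control; negative values mostly stem from fluorescent compounds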
HNF4A DNA FP – change in binding of human HNF4A to DNA, primary screen, biochemical, fluorescence polarization, FITC-DNA; 360,000 tested, 0.3% active; 1 h; activity change, % at 10 µM; AID 1224865, 2016; in the data active = activity change above about 30%, passing the limit was not always enough;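 note: controls were the assay level and a saturating level of protein; the project sought stronger binding though the title names inhibitors; some compounds called inactive have numbers as strong as hits; positive values seem to mean higher polarization but the record does not say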
Target sequence (P41235 whole entry, looked up): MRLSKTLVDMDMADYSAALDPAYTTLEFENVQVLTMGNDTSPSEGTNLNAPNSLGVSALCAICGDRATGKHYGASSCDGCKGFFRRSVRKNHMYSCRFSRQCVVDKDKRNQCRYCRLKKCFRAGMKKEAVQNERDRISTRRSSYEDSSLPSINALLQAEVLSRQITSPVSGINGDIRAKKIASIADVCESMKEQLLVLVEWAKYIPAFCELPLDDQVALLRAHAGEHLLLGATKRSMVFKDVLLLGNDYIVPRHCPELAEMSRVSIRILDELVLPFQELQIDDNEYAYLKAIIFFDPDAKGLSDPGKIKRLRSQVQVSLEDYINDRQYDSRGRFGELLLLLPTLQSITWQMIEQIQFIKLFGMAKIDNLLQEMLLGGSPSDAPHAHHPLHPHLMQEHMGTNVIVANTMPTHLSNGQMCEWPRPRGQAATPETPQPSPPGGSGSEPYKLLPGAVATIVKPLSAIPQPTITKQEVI
ALR H2O2 inh – inhibitors of human ALR sulfhydryl oxidase, primary screen, biochemical, H2O2 detection, HRP-luminol luminescence, single point | purified ALR, DTT oxidation | inhibition, % (test concentration not listed) | 290,000 tested, 3.8% active | AID 485317, 2010 | FAD-linked sulfhydryl oxidase ALR (Homo sapiens), P55789;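 active = mean and each replicate at 75% or more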;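 note: stock transfer was 7.5 nL into about 7.5 µL; 0% = neutral wells and 100% = wells with inactivated enzyme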
Target sequence (P55789 whole entry, looked up): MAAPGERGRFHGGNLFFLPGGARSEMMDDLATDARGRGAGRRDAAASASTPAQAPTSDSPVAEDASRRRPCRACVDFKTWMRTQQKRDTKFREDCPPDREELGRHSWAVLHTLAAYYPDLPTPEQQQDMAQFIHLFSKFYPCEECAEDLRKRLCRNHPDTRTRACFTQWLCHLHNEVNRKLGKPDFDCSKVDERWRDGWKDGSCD
UCH37 DUB inh – inhibitors of human UCH37 deubiquitinase, primary screen, biochemical, Ub-AMC cleavage, fluorescence; Ubiquitin carboxyl-terminal hydrolase isozyme L5 (Homo sapiens), Q9Y5K5; purified proteasome/UCH37; inhibition, % (no concentration beside the values); 330,000 tested, 0.33% active;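 active = mean of two replicates above 20%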;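 note: 0% = compound-free wells with enzyme and 100% = wells lacking proteasome; stock transfer was 100 nL into about 20 µL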
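Signal – fluorescence, ex 355 nm, em 460 nm · System – Proteasome-bound UCH37 · Input – 0.15 nM proteasome as dispensed · Timing – 30 min preincubation with enzyme, 25 min cleavage at room temperature · Read-out basis – percent inhibition of cleavage signal versus uninhibited and no-proteasome wells · Medium – Tris-HCl pH 7.4 with ATP-MgCl2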
FGF22 binding – binders of human FGF22 protein, primary screen, FGF22 synaptogenesis inhibitor project, biophysical, thermal shift, single point | Fibroblast growth factor 22 (Homo sapiens), Q9HCT0 | recombinant FGF22 thermal shift, SYPRO orange fluorescence; percent of sucrose octasulfate shift, DMSO zero | calls only at 9.99 µM | 340,000 tested, 1.5% active | AID 651658, 2012;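 active = melting point raised past a set limit in the mean and every replicate; three in four hits are not shown here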
Target sequence (Q9HCT0 whole entry, looked up): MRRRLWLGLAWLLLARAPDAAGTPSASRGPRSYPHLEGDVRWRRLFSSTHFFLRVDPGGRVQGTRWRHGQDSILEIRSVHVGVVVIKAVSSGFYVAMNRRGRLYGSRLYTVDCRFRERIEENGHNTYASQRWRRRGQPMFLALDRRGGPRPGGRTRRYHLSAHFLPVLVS
Ecoli growth – E. coli growth inhibition, primary screen, OD600; Escherichia coli growth, 23 h; hits give low values; OD600 absorbance (no concentration beside the values); 330,000 tested, 0.21% active;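 active = OD600 absorbance below the run mean of sample wells minus 3.6 SD, in any replicate, cut at about 0.56 in these data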;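 note: stock transfer was 300 nL into about 60 µL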
Ecoli rRNA inh OD600 – second read-out of Ecoli rRNA inh, no call of its own (marks repeat the call); OD600 change, %; measured here: OD600 growth;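 optical density of the mix in the first replicate; 0 = DMSO median and -100 = no signal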
Ecoli rRNA inh RFP – recorded beside Ecoli rRNA inh, whose call it bears; RFP signal change, %; measured here: RFP humanized mutant strains;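 first replicate; 0 = DMSO median and -100 = no signal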
* hit, by the source's call; i = inactive; x = no result given. These rows are one share of the data (hit frequency here may not be typical).

SMILES	Ecoli rRNA inh	Ecoli rRNA inh OD600	Ecoli rRNA inh RFP	B2AR ag	HNF4A DNA FP	ALR H2O2 inh	UCH37 DUB inh	FGF22 binding	Ecoli growth
O=C(CSc1ncccn1)N/N=C/c1ccc(OC2CSC2)cc1	-12	-10	-2.2	-12	3.6	-19	x	i	x
CC(C)(C)C(=O)NCCCc1nc2ccccc2n1CCCOc1ccc(Cl)cc1	x	x	x	5	1.8	-64	-2.7	x	0.71
COc1ccc(N2CCN(C(c3ccc4ncccc4c3)c3nnnn3C(C)(C)C)CC2)cc1 (stereo unspecified)	-5	-7	1.5	2	-2.9	x	3.1	i	0.71
O=C(Oc1ccc(C(=S)N2CCOCC2)cc1)c1ccccc1F	-19	-10	-4.5	3	1.8	12	4.8	i	0.7
CCOC(=O)CNC(=O)Cn1cnc2c(nnn2-c2ccc(F)cc2)c1=O	4	-4	-3.0	-2	-0.7	-65	-0.2	i	0.7
COc1cccc(OC)c1OCCN1CCN(C(c2ccccc2)c2ccccc2)CC1	-62	-78	-16	4	0.6	-4	2.3	i	0.61
CC(C)CC1NC(=O)N(CC(=O)Nc2cc(S(=O)(=O)N3CCOCC3)ccc2Cl)C1=O (stereo unspecified)	10	4	5.5	0	1.3	3	4.9	i	0.7
CCCCCCCOc1ccc(OC(=O)c2cccnc2)cc1	x	x	x	11	1.8	-11	1.4	x	0.7
NC(=O)COC(=O)c1ccc(Oc2ccccc2)cc1	x	x	x	-12	0.5	x	3.0	x	0.7
COc1cc(C(=O)Oc2ccccc2/C=N/NC(=O)c2ccc(C)c(Cl)c2)cc(OC)c1OC	x	x	x	2	2.9	2	x	x	x
O=c1ccc(S(=O)(=O)N2CCCC2)cn1Cc1nc(-c2ccccc2)no1	x	x	x	-6	0.2	x	3.9	i	0.69
Cc1cc(NC(=O)CCCC(=O)O)nc(C)n1	x	x	x	2	-1.6	-3	1.5	x	0.67
C(=N\Nc1nn2cnnc2c2ccccc12)/c1ccco1	3	26	1.9	2	3.8	38	x	x	x
CSCC(=O)N1CCCC(C(=O)c2cc(F)ccc2F)C1 (stereo unspecified)	3	-3	-2.3	-14	5.2	-4	0.5	i	0.73
O=C(c1ccccc1)N(Cc1cccs1)C1CCS(=O)(=O)C1 (stereo unspecified)	5	4	0.4	0	-3.3	-10	1.8	i	0.71
O=C1c2cccc3cccc(c23)C(=O)N1OS(=O)(=O)c1ccccc1	x	x	x	-1	-2.1	-6	-4.7	x	0.72
COc1ccc(CNC(=S)Nc2ccc3nc(N4CCOCC4)cc(C)c3c2)cc1	-31	-31	-3.6	10	-0.7	99*	-19	i	0.72
Cc1cccc2nc(CSc3nnnn3-c3ccccc3)cn12	x	x	x	-22	1.2	-7	1.9	x	0.63
CC(C)C[C@H](NC(=O)c1nc[nH]c1C(=O)NCCCCCNC(=O)OC(C)(C)C)C(=O)OC(C)(C)C	17	18	9.6	4	-0.7	-19	6.4	i	x
COc1ccccc1NC(=O)NC(N)=O	x	x	x	0	0.2	1	0.5	x	0.67
CN(CC1CCOCC1)C(=O)CC1C(=O)NCCN1Cc1cccc(C(F)(F)F)c1 (stereo unspecified)	2	9	-2.2	11	2.1	x	-15	i	0.69
CCOC(=O)NC(=O)/C(C#N)=C\Nc1sccc1C(=O)OC	10	-1	30	-3	-3.3	31	28*	i	x
CCOc1cc(/C=N/O)cc(Br)c1OCC	x	x	x	2	-1.8	3	x	x	x
Cc1nnc(NCCc2ccccc2)n(N)c1=O	x	x	x	2	-2.1	-4	1.2	x	0.76
CCN(c1ccc(OC)cc1)S(=O)(=O)c1nnc(NC(=O)COc2ccc(C)cc2)s1	0	8	4.1	17	-3.3	-8	0.4	x	0.73
CN(C)c1ccc(-c2ccnc3c2CC(C)(C(=O)NCc2cccs2)O3)cc1 (stereo unspecified)	3	-13	-9.2	x	-3.0	x	x	i	x
CCOC(=O)c1sc2cccc(F)c2c1N	3	-4	-5.3	9	-3.2	x	-221	i	0.65
FC(F)(F)c1cc(-c2ccccn2)nc2cc(-c3ccccc3)nn12	5	10	-4.5	2	-0.6	-10	-70	i	0.69
COc1ccccc1NC(=O)N1CCN(c2ccccn2)CC1	8	9	0.1	-10	1.1	-3	-1.1	i	0.7
O=C(OCC(=O)N(CCc1ccccc1)Cc1ccccc1)c1cccc(S(=O)(=O)N2CCOCC2)c1	7	6	9.9	6	-2.5	x	3.5	i	0.68
O=C(Cc1cccc2ccccc12)N/N=C/c1ccc(Sc2nc3ccccc3s2)o1	x	x	x	4	-0.9	1	x	x	x
CCOc1ccc2nc(COC(=O)c3cccs3)c(C(C)=O)[n+]([O-])c2c1	15	10	4.1	0	-0.5	-14	-1.8	i	0.7
O=C(O)C(C(=O)Oc1ccccc1)C(C(=O)O)C(=O)Oc1ccccc1 (stereo unspecified)	13	14	0.4	-6	-4.7	x	2.4	i	0.73
CC(=NNC(=S)N1CCCCCC1)c1cccc2cccnc12	11	12	-2.0	0	0.4	x	x	i	x
CCCOc1ccc(-c2nc(=S)[nH][nH]2)cc1	x	x	x	-9	-0.9	99*	4.5	x	0.7
CCC(C)[C@H](NC(=O)[C@@H]1CSC2c3ccccc3C(=O)N21)C(=O)NC1CCCC1 (stereo partly specified)	17	8	0.6	-5	4.5	1	5.4	i	0.71
COCc1nc2ccccc2n1Cc1ccccc1Br	x	x	x	-2	-1.6	-45	5.5	x	0.68
COc1ccc(C(c2c(C)n(C)n(-c3ccccc3)c2=O)c2c(C)n(C)n(-c3ccccc3)c2=O)cc1OC	-3	6	-0.2	-13	3.9	-1	-1.4	i	0.7
Cn1c(=S)[nH]c2sc3c(c2c1=O)CCC(C(C)(C)C)C3 (stereo unspecified)	-11	-12	1.7	15	0.5	-1	x	i	x
CC(C)c1onc(C(=O)N2C(C)CCCC2C)c1[N+](=O)[O-] (stereo unspecified)	x	x	x	-1	-0.7	1	-0.5	x	0.68
CC(=NCCc1ccccc1)C1=C(O)CSC1=O	x	x	x	9	-4.0	-2	0.3	x	0.72
COc1ccc(CCNC(=O)CSCc2ccc(F)cc2)cc1OC	x	x	x	-8	0.4	-18	1.9	x	0.65
COC(=O)c1ccccc1NC(=O)Nc1ccc(Cl)cn1	23	15	7.6	-536	-3.5	-4	-1.0	i	0.71
CCOC(=O)[C@@H]1[C@H]2COc3ccccc3[C@H]2N2C(=O)N(c3cccc(C)c3)C(=O)[C@]12C	7	1	-1.2	-2	-8.7	8	0.8	i	x
CC(Sc1nnc2ccccn12)C(=O)Nc1ccc(Cl)cn1 (stereo unspecified)	x	x	x	-4	-1.3	-3	0.6	x	0.66
COc1ccc(C(=O)NC2CCSC2=O)cc1 (stereo unspecified)	x	x	x	25	0.5	-1	0.3	x	0.68
C#Cc1ccc([C@@H]2C=C(C(=O)N3CCOCC3)O[C@H](OCCCCO)C2)cc1	0	8	0.9	7	0.0	x	1.7	i	x
CC(=O)c1ccc(NC(=S)NC2CCCC(C)C2C)cc1 (stereo unspecified)	-42	-71	-24	1	4.3	x	3.2	i	0.65
CCN(CC(=O)NCc1ccc(F)cc1)CC(=O)Nc1cc(S(=O)(=O)N(C)C)ccc1C	x	x	x	4	1.5	15	1.4	i	0.64
O=C(CNc1ccc(Br)cc1)c1ccc(O)cc1	-45*	-24*	0.9*	6	0.8	8	5.7	i	0.7
CCOC(=O)N1CCC2(CC1)NCCc1c2[nH]c2ccccc12	5	9	1.1	6	0.3	x	1.8	i	0.69
O=C(NCC(c1ccccc1Cl)N1CCCC1)c1ccc(N2CCCC2=O)cc1 (stereo unspecified)	2	4	0.8	11	1.4	x	4.3	i	0.67
CCOC(=O)C1=CCN(S(=O)(=O)c2ccccc2)C1c1ccc(Cl)cc1 (stereo unspecified)	-28	-41	-10.0	x	-2.2	x	x	i	x
CN1C(=O)/C(=N/OC(=O)c2ccccc2)c2ccccc21	x	x	x	-6	0.4	11	x	x	x
CCn1c(SCC(=O)N2CC(=O)Nc3ccccc32)nnc1-c1ccoc1C	x	x	x	24	-1.2	-1	3.2	x	0.71
O=C(OCC(=O)N1CCOCC1)c1ccccc1OCc1ccc(Cl)cc1	-18	-43	2.7	-7	0.1	-4	1.5	x	0.72
CCn1nnc(NC(=O)c2cc3ccccc3o2)n1	x	x	x	1	4.9	-8	3.5	x	0.64
O=C(CN1CCN(S(=O)(=O)N2CCOCC2)CC1)Nc1cc(Cl)ccc1Cl	1	-1	-1.6	4	-0.7	x	-0.2	i	0.67
COc1ccc(S(=O)(=O)NNC(=O)c2csc(-n3nc(C)cc3C(F)(F)F)n2)cc1OC	x	x	x	4	-1.6	15	-1.6	x	0.69
Clc1ccccc1-c1nc2ccccc2[nH]1	-1	0	1.9	-7	1.7	0	-0.5	i	0.68

Whole records, quoted from the list. Order of values: Ecoli rRNA inh | Ecoli rRNA inh OD600 | Ecoli rRNA inh RFP | B2AR ag | HNF4A DNA FP | ALR H2O2 inh | UCH37 DUB inh | FGF22 binding | Ecoli growth
CCOC(=O)N1CCC2(CC1)NCCc1c2[nH]c2ccccc12 as listed: 5 | 9 | 1.1 | 6 | 0.3 | x | 1.8 | i | 0.69
CC(Sc1nnc2ccccn12)C(=O)Nc1ccc(Cl)cn1 (stereo unspecified) as listed: x | x | x | -4 | -1.3 | -3 | 0.6 | x | 0.66
O=C(CN1CCN(S(=O)(=O)N2CCOCC2)CC1)Nc1cc(Cl)ccc1Cl as listed: 1 | -1 | -1.6 | 4 | -0.7 | x | -0.2 | i | 0.67

Next part
SMILES	Ecoli rRNA inh	Ecoli rRNA inh OD600	Ecoli rRNA inh RFP	B2AR ag	HNF4A DNA FP	ALR H2O2 inh	UCH37 DUB inh	FGF22 binding	Ecoli growth
C=CCOc1ccc(NC(=O)C(=O)NCCCn2ccnc2)cc1	x	x	x	1	4.3	-5	-1.5	x	0.72
CN1CCN(C(=O)c2sc(=S)n(-c3ccccc3)c2N)CC1	x	x	x	4	3.7	28	9.5	x	0.62
Cc1ccc(-n2ncc(C#N)c2/N=C/N2CCCCCC2)cc1	x	x	x	-4	-5.2	-6	x	x	x
CCOc1cc(/C=N/NC(=O)c2cc3c(ccc4ccccc43)o2)ccc1O	-39	-73	12	22	6.4	0	x	i	x
Cc1cc(O)c(C(=O)/C=C/c2cccc([N+](=O)[O-])c2)c(=O)o1	2	12	-1.4	11	-1.3	x	x	i	x
Cc1c(C#N)c2ccccc2n1CC(=O)NCc1cccnc1	x	x	x	-4	-4.9	-13	-2.4	x	0.69
CCN(CC)CCNC(=O)c1ccc(NC(=O)c2cccc(S(=O)(=O)N3c4ccccc4CC3C)c2)cc1 (stereo unspecified)	-8	-34	14	28	5.0	-4	2.0	i	0.7
O=C(COC(=O)CN1C(=O)c2ccccc2C1=O)Nc1ccccc1	x	x	x	4	1.0	-4	1.0	i	0.67
CCOC(=O)CC(=O)CSc1ncnc2c1nnn2-c1ccc(F)cc1	-17	2	8.9	5	-0.9	x	x	i	x
O=C(c1ccco1)N(Cc1ccc(Cl)cc1)Cc1ccco1	-46	-68	-12	20	0.0	3	1.0	i	0.66
